Assay outcomes (PubChem BioAssay)
NPYLR7 ag = agonists of mosquito NPYLR7 receptor, primary screen, cell-based, Aedes aegypti, calcium fluorescence, mosquito biting behavior; activation, % at 10 µM; 270,000 tested, 0.15% active; HEK293T NPYLR7/Galpha15, GCaMP6s calcium fluorescence; Aedes aegypti neuropeptide Y-like receptor 7 (NPYLR7); in the data active = activation above about 40%;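 note: 0% = vehicle and 100% = reference agonist at the receptor; some compounds past the cut are filed as inactive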
NPYLR7 ag max-min = second read-out of NPYLR7 ag, no call of its own (marks repeat the call); activation, %; measured here: Max-Min RFU normalised activation; some inactives read as strong as hits;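 span of the calcium signal over five minutes; 0% = vehicle and 100% = native peptide agonist; compound fluorescence can raise it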
Numbers without * were called inactive; & = joins results of further samples. Only part of the results is shown; count on the stated rates, not on these rows.

Values run as follows: NPYLR7 ag max-min	NPYLR7 ag
- CCn1ccnc1CN1CCCC(C(=O)Nc2ccc(-c3nc4ccccc4[nH]3)cc2)C1 (stereo not drawn)
    -5	1
- Cc1ncc(CC(=O)NNS(=O)(=O)c2cc(Cl)ccc2Cl)s1
    1	3
- O=C(CC1CSc2nc3c(c(=O)n21)CCC3)NCCC1=CCCCC1 (stereo not drawn)
    -7	-5
- CCc1c(C)nc(-n2nc(C)cc2NC(=O)c2ccco2)[nH]c1=O
    5	12
- COc1cccc(NC(=O)c2ccccc2NC(=O)CN2CSCC2=O)c1
    2	5
- CN(C)C1(CN)CCCCC1
    -25	-19
- O=c1oc2ccc(Br)cc2cc1-c1csc(Nc2ccc(Br)cc2)n1
    14	9
- C=CCNCC(=O)N1CCc2sccc2C1COc1ccccc1OC (stereo not drawn)
    32	26
- O=C(Cc1ccc(F)cc1)NCCc1csc2nc(-c3ccccc3F)nn12
    -5	-5
- Cc1ccn(S(=O)(=O)c2c(C)c(C)cc(C)c2C)n1
    30	26
- O=C(c1ccco1)N1CCN(c2ncnc3sc4c(c23)CCCC4)CC1
    4	8
- CCN(CC)CCn1c2ccccc2c2nc3ccccc3nc21
    -4	-2
- CC(C)CN1C(=O)c2cccc3cc(Br)cc(c23)C1=O
    -3	-1
- COc1cc(-c2ccnc(N3CCN(C(=O)c4ccco4)CC3)n2)cc(OC)c1OC
    14	1
- CCOC(=O)C1CCN(c2cc(Oc3ccc(Cl)cc3)ncn2)CC1
    1	-6
- CCCCNC(=O)C1(C)CCN1Cc1ccc(C#N)cc1 (stereo not drawn)
    -2	0
- CCCCCCCCn1c(N2CCN(Cc3ccccc3)CC2)nc2c1c(=O)[nH]c(=O)n2C
    -1	2
- O=C(NCc1ccccn1)C(C1CCCC1)N1CCN(C(=O)c2ccccc2F)CC1 (stereo not drawn)
    -3	-8
- Cc1nonc1CC(=O)N1CCCC(Nc2ccc(C(C)C)cc2)C1 (stereo not drawn)
    2	3
- Fc1ccccc1-c1noc2nc(NCCN3CCCC3)ccc12
    -4	-2
- CCCc1ccc(C2CC(=O)Nc3cc4c(cc32)OCO4)o1 (stereo not drawn)
    2	2
- C#CCOCC(O)CN(Cc1cccc(F)c1)CC1CC(c2ccccc2Cl)=NO1 (stereo not drawn)
    3	-4
- CCc1c(C)nc(-n2nc(C)cc2NC(=O)c2cccs2)[nH]c1=O
    4	11
- Cc1cccc(-c2noc(N3CCOCC3)c2CN(CC2CCCO2)C(=O)c2ccc(Cl)cc2)c1 (stereo not drawn)
    16	9
- CCc1nc(C)sc1CN1CC(C(=O)O)CC1=O (stereo not drawn)
    -5	1
- Cc1ccc(N2CC(C(=O)Nc3cc(-c4cccs4)nn3-c3nc(C)c(C)c(=O)[nH]3)CC2=O)cc1 (stereo not drawn)
    -5	-4
- COc1ccc(C=c2sc(=C(C#N)C#N)n(-c3ccccc3OC)c2=O)cc1
    11	14
- Cc1nc(-n2nc(C3CC3)cc2NC(=O)c2ccccc2C(F)(F)F)[nH]c(=O)c1C
    17	17
- O=C(Nc1ccccc1)Nc1cccc(NC(=O)C2CCCN2S(=O)(=O)c2ccc(F)cc2)c1 (stereo not drawn)
    -4	-2
- COCCCN(CC(=O)N(CCc1c[nH]c2ccccc12)Cc1ccc(OC)c(OC)c1)C(=O)C(C)(C)C
    25	19

6 records drawn at random from the list so far, as already listed:
Values run as follows: NPYLR7 ag max-min	NPYLR7 ag
- CCCCNC(=O)C1(C)CCN1Cc1ccc(C#N)cc1 (stereo not drawn)
    -2	0
- CCN(CC)CCn1c2ccccc2c2nc3ccccc3nc21
    -4	-2
- O=C(Cc1ccc(F)cc1)NCCc1csc2nc(-c3ccccc3F)nn12
    -5	-5
- CCc1nc(C)sc1CN1CC(C(=O)O)CC1=O (stereo not drawn)
    -5	1
- Fc1ccccc1-c1noc2nc(NCCN3CCCC3)ccc12
    -4	-2
- CCOC(=O)C1CCN(c2cc(Oc3ccc(Cl)cc3)ncn2)CC1
    1	-6

The main list resumes, repeating the 3 entries before the break.
Values run as follows: NPYLR7 ag max-min	NPYLR7 ag
- Cc1nc(-n2nc(C3CC3)cc2NC(=O)c2ccccc2C(F)(F)F)[nH]c(=O)c1C
    17	17
- O=C(Nc1ccccc1)Nc1cccc(NC(=O)C2CCCN2S(=O)(=O)c2ccc(F)cc2)c1 (stereo not drawn)
    -4	-2
- COCCCN(CC(=O)N(CCc1c[nH]c2ccccc12)Cc1ccc(OC)c(OC)c1)C(=O)C(C)(C)C
    25	19
- CC(C)C(C(=O)O)N1C(=O)/C(=C/c2ccc(F)cc2)SC1=S (stereo not drawn)
    -8	-3
- Cc1[nH]n(-c2nc(-c3ccc(Br)cc3)cs2)c(=O)c1N=Nc1ccc(C(N)=O)cc1
    -8	-5
- CN(C)C1CCCN(C(=O)c2ccc(-c3ccn[nH]3)cc2)CC1 (stereo not drawn)
    -3	1
- Cc1nn(C)c(C)c1CCC(=O)N(C)Cc1cc(C(C)C)no1
    10	13
- Cc1cc(C(=O)NCC2CCCN(Cc3ccc4c(c3)Cc3ccccc3-4)C2)no1 (stereo not drawn)
    3	15
- Cc1[nH]nc(CCC(=O)N2C[C@H](N(C)C)C[C@H]2CO)c1C
    12	16
- Nc1nc2ncc(CNc3ccc(C(=O)N[C@@H](CCC(=O)O)C(=O)O)cc3)nc2c(=O)[nH]1
    -15&-6&-11	-7&-3&-6
- O=C1C=CC(=O)N1c1ccc(F)c(Cl)c1
    -12	-4
- CCN(CCN1CCCC1)C1CCNCC1
    17	22
- Cc1ccc(C(O)CNC(=O)c2cccc(C#N)c2)cc1 (stereo not drawn)
    1	2
- Cc1[nH]nc2c1C(C1CC=CCC1)C(C#N)C(=N)O2 (stereo not drawn)
    -7&-2	-6&-1
- O=C(NCc1cn2ccsc2n1)Nc1ccccc1N1CCOCC1
    13	18
- CCC(C)(NC(=O)Cc1c(C)nn(-c2nc(C)cc(C)n2)c1C)C(=O)OC (stereo not drawn)
    6	2
- COc1ccc(OC)c(CN(Cc2ccco2)C(=O)C(OC(C)=O)c2ccccc2)c1 (stereo not drawn)
    -9	-6
- COc1cc(-c2nc3ccc(Br)cn3c2NC2CCCCC2)ccc1OS(=O)(=O)c1ccccc1
    4	-5
- COC(=O)C1CCCCN1C(=O)c1cn(C2CCCCC2)nn1 (stereo not drawn)
    -1	5
- CCC1CN(Cc2cnc(C)cn2)CCS1 (stereo not drawn)
    9	17
- Nc1nc(-c2ccco2)nc(N2CCCCC2)n1
    8	11
- O=C1C(Oc2ccc(Cl)cc2)C(c2ccc3c(c2)OCO3)N1CC1CCCO1 (stereo not drawn)
    0	4
- C/C=C\COC1CCCN(C(=O)Nc2cccc(Cl)c2)C1 (stereo not drawn)
    -3	-13
- COc1cc(C=CC(=O)Nc2ccc3c(c2)OCCO3)cc2c1OCCO2
    -11	-7
- O=C(CC1C(=O)NC2(CCCC2)CN1Cc1c[nH]c2cc(F)ccc12)NCc1ccccn1 (stereo not drawn)
    9	21
- Cc1cccc(N2CCN(CC(=O)Nc3ccc(SC(F)F)cc3)CC2C)c1 (stereo not drawn)
    7	8
- CCc1nc2ccc(C(=O)N(C)Cc3ccco3)cn2c1N(CC)Cc1ccc(OC)c(OC)c1
    -13	-9
- COc1ccc(CCOc2nc(-c3ccco3)n(-c3ccc(NC(=O)c4ccc(F)cc4)cc3)n2)cc1
    19	22
- O=C(Nc1ccc(N2CCCCC2)c(C(=O)N2CCCC2)c1)C(c1ccccc1)c1ccccc1
    28	22
- CCOC(=O)c1nn(-c2ccccc2Cl)c(=O)cc1OS(=O)(=O)c1cc(C)ccc1OC
    6	-1
- Cc1csc2nc(O)c(C(=O)NCCN(C)C)c(=O)n12
    24	-1
- CS(=O)(=O)Nc1ccc(Br)cc1Cl
    2	6
- Cc1nc2ncc3c(=O)n(C4CCCC4)ccc3n2n1
    3	3

More entries follow:
Values run as follows: NPYLR7 ag max-min	NPYLR7 ag
- CCn1nc(C)c(CN2CCCC3(C2)C(=O)Nc2ccccc23)c1C (stereo not drawn)
    -3	0
- Cc1ccncc1C(=O)N1CCCn2nc(C(=O)NCCN(C)C)cc2C1
    -14	-13
- Cc1noc(C)c1-n1c(CCNc2ccccc2)n[nH]c1=O
    -7	-1
- COC(=O)c1cccc(S(=O)(=O)N2CCCC2CN(C)C)c1C (stereo not drawn)
    -2	-2
- Cn1c(Cl)nc(Cl)c1CNCc1ccc(F)cc1
    12	19
- COc1ccc(OC)c(CCNC(=O)/C=C/c2cnc(C)s2)c1
    -1	0
- O=C(NCc1ccc(Cl)cc1Cl)C1CSCCS1 (stereo not drawn)
    -20	-18
- CN(Cc1ccc(-n2cccn2)cc1)Cc1ncc[nH]1
    10	14
- Cc1occc1C(=O)N(C)CCCCN(C)C(=O)c1ccoc1C
    -3	-2
- N#CCCN(CC1CC1)S(=O)(=O)/C=C/c1ccccc1
    4	3
- Cc1cc(C)cc(-n2c(SCC(=O)NC3CCCCC3)nc3c(c2=O)SCC3)c1
    -8	-4
- COc1ccccc1N1CCC(N2CCCC(CO)(Cc3ccccc3)C2)CC1 (stereo not drawn)
    7	12
- O=C(NC1CCCC1)c1nnn(-c2ccccc2)c1CSc1ncccn1
    -11	-7
- CCOC(=O)C(C#N)C1(c2ccc(C)cc2)CCOC(C)(C)C1 (stereo not drawn)
    2	3
- Clc1cc(Cl)cc(Nc2ncnc3ccccc23)c1
    8	10
- Brc1cc(Br)c2c(c1)C=C1CCCCC1(N1CCOCC1)O2 (stereo not drawn)
    8	2
- Cc1ccc(NC(=O)CSc2nnc(C)c3cnn(-c4ccccc4)c23)c(C)c1
    -19	-11
- COC(=O)c1cccc(S(=O)(=O)N(C)Cc2ccc(C)cc2C)c1
    0	0
- CCN(CC)C(CNc1cnn(-c2ccccc2)c(=O)c1Cl)c1ccccc1 (stereo not drawn)
    -2	-1
- COc1ncccc1C(=O)N1CC(c2ccccn2)C1
    3	3
- CN(Cc1ccccc1)c1nc2nonc2nc1NCCN1CCCC(O)C1 (stereo not drawn)
    12	9
- COc1ccccc1N=c1oc2c(OC)cccc2cc1-c1nc2ccccc2[nH]1
    -5	-4
- CCS(=O)(=O)N1CCN(S(C)(=O)=O)CC1
    -3	-1
- CCOC(=O)C1(CCOc2ccccc2)CCN(Cc2cccn2-c2nccs2)CC1
    -15	-11
- COc1ccc(C)cc1NC1CCCN(C(=O)c2ccc3c(c2)OCO3)C1 (stereo not drawn)
    12	1
- Cc1ccc(NC(=O)CN(C)C(=O)c2ccc3c(c2)OCCCO3)cc1
    9	5
- CC(C1CC1)N(Cc1ncc(-c2ccc(F)cc2)o1)C1CC1 (stereo not drawn)
    -1	1
- CC(=O)Nc1ccc(Cl)c(C(=O)NCCN2CCCC(O)C2)c1 (stereo not drawn)
    -8	-6
- Cc1cnn(C2CCCc3ccccc32)c1NC(=O)C1COCCO1 (stereo not drawn)
    1	1
- Fc1ccc(N2CCN(CCNc3cncc(Cl)n3)CC2)cc1
    -3	1

The results go on:
Values run as follows: NPYLR7 ag max-min	NPYLR7 ag
- Cc1nnc(SCc2cc(F)cc(F)c2)n1-c1cccc(Cl)c1
    20	17
- CCOC(=O)[C@H]1C[C@]2(CCCCN(C)C2=O)N(C(=O)c2ccc(C)cc2)[C@H]1c1ccco1
    14	4
- NCc1n[nH]c(=O)n1-c1ccc(Cl)cc1
    2	2
- COCCCS(=O)(=O)N1CSCC1C(=O)Nc1ccc(C)c(C)c1 (stereo not drawn)
    24	1
- CCCNC(=O)C(NC(=O)c1cccs1)C1CCN(C(=O)Nc2cccc(Cl)c2)CC1 (stereo not drawn)
    5	3
- Cc1cc(C(=O)NCCn2ncc3c(N4CCN(c5ccccc5)CC4)ncnc32)no1
    -1	-1
- C=CCNc1ccccc1C(=O)NCc1ncc[nH]1
    -3	-1
- O=C(NC(c1ccccc1)c1ccccn1)C1CC=CCC1C(=O)N1CCc2ccccc2C1 (stereo not drawn)
    -14	-6
- Cc1ccc(CN(C2CCc3ccccc32)S(N)(=O)=O)cc1 (stereo not drawn)
    4	6
- Fc1cccc(NCCc2ccc(-n3cccn3)cc2)n1
    3	3
- O=C(CC1CCCC1)N1CC[C@@]2(C1)[C@@H](O)CN(c1ccccc1)S2(=O)=O
    5	-3
- O=c1cc(CSc2nc3ccc(Cl)cc3[nH]2)nc2ccc(Br)cn12
    8	2
- COc1ccc(CN(Cn2nc(-c3ccccc3F)n(C)c2=S)C2CC2)cc1
    -1	1
- CN1OCC(S(=O)(=O)NCC2CCCO2)C1c1ccccc1[N+](=O)[O-] (stereo not drawn)
    6	6
- O=C(Cn1cnc2sccc2c1=O)NC(=O)NCc1ccco1
    -7	-2
- CC(=O)N1CCC2(CC1)OCc1cc(-c3cccc(S(C)(=O)=O)c3)ccc1O2
    -7	-2
- COc1cccc(C(=O)N2CCN(CC(OCc3cccc(C)c3)c3ccc(Cl)cc3)CC2)c1 (stereo not drawn)
    0	-2
- Cc1ccsc1C(=O)N1CCC1(C)C(=O)NS(=O)(=O)c1ccc(Br)cc1 (stereo not drawn)
    -2	1
- Cc1ccc(N2C(=O)C3CC=CC(C)C3C2=O)cc1C (stereo not drawn)
    12	11
- Cc1noc(C)c1C(=O)OCC(=O)NCCN1C(=O)CSC1=O
    -5	-1
- COc1ccc2nc(SCc3ncc(C)c(OC)c3C)[nH]c2c1
    -29	-20
- O=C(C1=C(O)C(=O)N(CC2CCCO2)C1c1cccs1)c1ccco1 (stereo not drawn)
    3	2
- CCCCN(C=O)c1c(CC)nc2ccc(C(=O)NCc3ccc4c(c3)OCO4)cn12
    -10	0
- Cc1ccc(N(/C=C/C(=O)C(F)(F)F)CCCN2C(=O)c3cccc4cccc(c34)C2=O)c(C)c1
    -12	-7
- CC(C)C=C1CCCCC1O (stereo not drawn)
    34	4
- COCCn1c(C)cc(O)c(C(c2ccc(OC)cc2)N2CCN(CCO)CC2)c1=O (stereo not drawn)
    1	10
- O=C(NCCCc1ccc(F)cc1)c1cc(CN2CCOCC2)on1
    7	14
